# Screens from PubChem.
# RE007 growth inh: qHTS Assay for Inhibitors of the HIV-1 protein Vpr. hit rate 0.21% among 360,000. S. pombe RE007 Vpr strain, BacTiter-Glo ATP luminescence, 24 h; control for the full effect not named in the record. AID 651644, 2012. Potency, µM (highest dose often 92.2 µM), without a hit: at the top dose activity change, negative = less growth; active = well fitted falling curve with a large enough effect; inconclusive = small, poorly fitted or top-dose-only effect; inactive = no such curve, though single readings can be large or run the other way;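 further: on the % scale 0 is the no-effect control and ±100 the full control effect; nearly all actives have a fitted effect of over 50% in size; the assay follows cell death caused by Vpr and the record does not say whether a fall means rescue or toxicity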
#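 Fission yeast RE007 carrying one integrated HIV-1 vpr copy, seeded at OD 0.01 in PMG+AL medium with 23 nL pinned compound. Grown 24 h at 30 degrees; viability read by BacTiter-Glo luminescence after 5 min.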
# NS1 function inh: qHTS Assay for Inhibitors of Influenza NS1 Protein Function. S. cerevisiae slowed by influenza A NS1, growth recovery by OD600. Potency, µM (series often up to 46.1 µM), for inactives: at the top dose activity, positive = more growth. hit rate 0.4% among 270,000. AID 2326, 2010; active means well fitted rising curve with a large enough effect; inconclusive means small, poorly fitted or top-dose-only effect; inactive means no such curve, though single readings can be large or run the other way; further: nearly all actives have a fitted effect of over 50% in size
#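 Read-out: OD600 growth recovery of NS1-expressing budding yeast. Cells grown overnight at 30C in -URA glucose medium, washed, resuspended and diluted 1:100 in 2% galactose assay medium, pH 6.0. Same strain lacking NS1 served as positive control.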
# MARV entry inh: qHTS for inhibitors of binding or entry into cells for Marburg Virus; Potency, µM (doses to about 37.8 µM), for inactives: top-dose activity change, negative = inhibition, usual class: inhibitors; hit rate 1.8% among 300,000; AID 540276, 2011; Marburg virus pseudotyped entry inhibition, cell reporter; control for the full effect not named in the record; about a third of the inactives were read at about 46 µM; active = well fitted inhibition curve with a large enough effect; inconclusive = small, poorly fitted or top-dose-only effect, or effect the other way; inactive = flat fitted curve, though single readings scatter; tested in HEK293 cells; about a fifth of its hits are not listed in these tables; further: on the % scale 0 is the no-effect control and ±100 the full control effect; luciferase read-out
# Cruzain Triton: qHTS Assay for Promiscuous and Specific Inhibitors of Cruzain (with detergent); Cruzipain (Trypanosoma cruzi), P25779; purified cruzain, Z-FR-AMC fluorescence, 0.01% Triton; Potency, µM, inactives show max response, negative = inhibition, most hits filed as inhibitors; hit rate 0.43% among 200,000; AID 1478, 2009;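 further: plate controls were neutral wells for no effect and buffer without enzyme for full effect; nearly all actives have a fitted effect of over 40% in size; top concentration of the series not given in the record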
# Target sequence (P25779 123-467 limits assumed): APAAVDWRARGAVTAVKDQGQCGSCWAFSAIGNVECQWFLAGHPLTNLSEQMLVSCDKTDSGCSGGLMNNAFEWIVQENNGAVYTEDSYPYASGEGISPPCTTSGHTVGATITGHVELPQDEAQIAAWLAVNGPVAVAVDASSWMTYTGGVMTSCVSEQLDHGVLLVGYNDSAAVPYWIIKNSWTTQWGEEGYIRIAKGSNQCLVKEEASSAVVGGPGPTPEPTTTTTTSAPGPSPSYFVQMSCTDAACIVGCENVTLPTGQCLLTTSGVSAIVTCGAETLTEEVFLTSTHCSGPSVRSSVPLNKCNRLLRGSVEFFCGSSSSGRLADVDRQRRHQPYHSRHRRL
#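 Steps: dispense cruzain (1.5 nM final) in acetate buffer pH 5.5 with DTT and 0.01% Triton X-100; pin-transfer compounds; incubate 15 min RT; add Z-FR-AMC (2 uM final); read fluorescence every 30 s, using the 60 s intensity change.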
# Cruzain inh noDet: qHTS Assay for Promiscuous and Specific Inhibitors of Cruzain (without detergent); purified cruzain, Z-FR-AMC fluorescence, no detergent; Potency, µM, for inactives: max response, negative = inhibition, actives largely listed as inhibitors; hit rate 2.3% among 200,000; Cruzipain (Trypanosoma cruzi), P25779;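 further: plate controls were enzyme without inhibitor for no effect and buffer without enzyme for full effect; nearly all actives have a fitted effect of over 40% in size; top concentration of the series not given in the record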
#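 Purified cruzain at 1.5 nM, pre-incubated 15 min with compound at room temperature in 100 mM sodium acetate pH 5.5, 5 mM DTT, 0.00005% Triton X-100. Reaction started with 2 uM Z-FR-AMC; AMC fluorescence increase over 60 s gives rate.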
# Lassa entry inh: qHTS for Inhibitors of binding or entry into cells for Lassa Virus. hit rate 1.2% among 300,000. AID 540256, 2011. Lassa virus pseudotype entry inhibition, cell reporter; control for the full effect not named in the record. Potency, µM (titrated, usually from 37.9 µM), without a hit: at the highest dose activity change, negative = inhibition, hits mostly inhibitors; active means well fitted inhibition curve with a large enough effect; inconclusive means small, poorly fitted or top-dose-only effect, or effect the other way; inactive means flat fitted curve, though single readings scatter; tested in HEK293 cells; further: on the % scale 0 is the no-effect control and ±100 the full control effect; nearly all actives have a fitted effect of over 50% in size; luciferase read-out
# 2A StopGo: High Throughput Screening for Foot and Mouth Disease Virus Antivirals. human cells with a luciferase reporter of 2A StopGo recoding; control for the full effect not named in the record. Potency, µM (top dose mostly 57.9 µM), without a hit: at the highest dose signal change, negative = less light. hit rate 1.2% among 410,000; active = well fitted falling curve with a large enough effect; inconclusive = small, poorly fitted or top-dose-only effect; inactive = no such curve, though single readings can be large or run the other way; tested in HEK293T cells; further: on the % scale 0 is the no-effect control and ±100 the full control effect; nearly all actives have a fitted effect of over 45% in size; luciferase light after 4 h
# SARS PLpro yeast: qHTS of Yeast-based Assay for SARS-CoV PLP; S. cerevisiae expressing SARS-CoV PLpro, growth rescue; control for the full effect not named in the record; Potency, µM (top dose mostly 32.9 µM), without a hit: at the highest dose activity, positive = growth rescue; hit rate 0.19% among 330,000; AID 485353, 2010; active means well fitted rising curve with a large enough effect; inconclusive means small, poorly fitted or top-dose-only effect; inactive means no such curve, though single readings can be large or run the other way; further: 0% is about no effect; nearly all actives have a fitted effect of over 55% in size; growth read by luminescence after 48 h
# * marks the source's active call; other numbers are inactive results; ? = inconclusive; . = no result given; [ ] = another dose, or the depositor's remark. Unless noted, the call rests on the fitted dose curve; in most records, active means well fitted curve in the direction sought with a large enough effect; inconclusive means small, poorly fitted or top-dose-only effect, or another doubt; inactive means no such curve, though single readings can be large; an effect the other way counts as inactive or inconclusive. Potency means the concentration at half of the fitted maximal effect.
mol,Cruzain Triton,RE007 growth inh,SARS PLpro yeast,2A StopGo,Cruzain inh noDet,NS1 function inh,Lassa entry inh,MARV entry inh
COc1ccc2nc(Nc3nc(-c4cc5ccccc5oc4=O)cs3)sc2c1,-2.5%,7%,-4%,?,-8%,17%,?,?
CCOc1ccc(N2C(=O)CC(NCc3ccc(F)cc3)C2=O)cc1 (stereo not drawn),4.4%,-25%,-16%,12%,0%,-22%,8%,25%
Cc1cccc(NC(=S)NC2CC3CCCC(C2)N3CC(C)C)c1C (stereo not drawn),-0.5%,-2%,-6%,-3%,-5%,2%,19%,?
CCNc1nc(C)nc2c1cnn2C,.,-12%,.,-5%,.,.,5%,4%
CCC1=C(OC(=O)N(CC)CC)N2C(=O)OC(=NCC3CC3)[C@]2(Cc2ccccc2)[C@H]2C1=CC[C@H]1C(=O)N(CC(=O)OC)C(=O)[C@H]12,-4.7%,-2%,-3%,60%[activator],?,-5%,.,.
CC(OC(=O)C1CC1)C(=O)Nc1cc(C(F)(F)F)ccc1Cl (stereo not drawn),.,5%,17%,-3%,.,-2%,16%,-1%[46.1 µM]
CC(C)(C)C1CCc2oc3ccc(NS(=O)(=O)c4ccc(C(=O)O)cc4)cc3c2C1 (stereo not drawn),-24%,.,.,-13%,?,.,-11%[46.1 µM],?
Cc1cc(N2CCN(C(=O)c3cccs3)CC2)c(F)cc1[N+](=O)[O-],.,-23%,-9%,-27%,.,-10%,.,.
CCN(CC(=O)Nc1cc(Cl)ccc1C)C(=O)CSCc1ccc(C)cc1,.,3%,-4%,-9%,.,.,?,?
CC(C)(C)n1nnnc1C(c1cccc(C(F)(F)F)c1)N1CCC(O)CC1 (stereo not drawn),.,-10%,-1%,-17%,.,-2%,.,.
CCOC(=O)C1CCN(C(=O)c2ccccc2)C(CC)C1=O (stereo not drawn),.,2%,.,-8%,.,.,-1%[46.1 µM],-21%
CC1=CC(C)(C(Cl)Cl)C(C)=CC1=O (stereo not drawn),-0.1%,7%,6%,-23%,-9%,3%,9%,9%
CC(C)c1ccc(N(CC(=O)NCC2CCCO2)C(=O)CCC(=O)Nc2nccs2)cc1 (stereo not drawn),.,19%,2%,17%,.,-4%,-17%,7%[46.1 µM]
Cc1ccc2nc(SC(C(=O)Nc3ccc(F)cc3)c3ccccc3)[nH]c2c1 (stereo not drawn),-5.5%,4%,-33%,?,0%,-2%,-27%,?
O=c1cc(O)c2sc(Nc3ccc(F)c(Cl)c3)nc2[nH]1,.,-6%,0%,15%,.,.,0%,-1%[46.1 µM]
Cc1ccc(CNC(=O)CN(C2CCCCC2)S(C)(=O)=O)cc1,2.0%,-3%,1%,2%,8%,6%,-27%,0%
CN1c2ccccc2C(C)(C)C12C=Nc1c(cc(N3CCOCC3)c3ccccc13)O2 (stereo not drawn),1.4%,2%,-14%,?,25µM*,-4%,?,?
COc1ccc(CN2CCCC(C(=O)c3ccc(Cl)cc3)C2)cc1Cn1cncn1 (stereo not drawn),.,-3%,2%,-8%,.,-1%,.,.
O=C(CCC(NC(=O)OCc1ccccc1)C(=O)OCC(=O)N1CCCCC1)OCC(=O)N1CCCCC1 (stereo not drawn),-0.3%,25%,5%,-17%,1%,-2%,8%,5%
Cc1cc(C)c(OCC(=O)OCC(=O)N2CCc3ccccc3C2)c(C)c1,.,0%,1%,-8%,.,.,11%,11%[46.1 µM]
CCOC(=O)C1=C(C)NC(=S)N(C(C)=O)C1c1ccc(Cl)cc1 (stereo not drawn),-11%,12%,-15%,.,-26%,-21%,-12%,?
COc1ccc(C(=O)Nc2ccc(CN3CCOCC3)cc2)cc1Br,.,-14%,-1%,-2%,.,10%,.,.
O=Cc1cn(-c2ccccc2)nc1-c1cccnc1,.,5%,-1%,17%,.,.,-13%,0%
CCc1nc(N=Nc2c(O)[nH]c3ccccc23)c2c3c(sc2n1)CCC3,-1.2%,5%,18%,9%,18%,14%,-1%,-13%
O=C(CCC(=O)N1CCN(c2ccc(F)cc2)CC1)c1ccc(F)cc1,.,1%,0%,-17%,.,-5%,-16%,?
O=C(Nc1ccccc1Cl)N1CCN(c2ccccn2)CC1,-0.7%,-3%,5%,7%,-1%,-3%,-8%,4%
Cc1cc(C)n2nc(SCc3ccccc3)nc2n1,.,9%,-1%,27%,.,-31%,.,.
NS(=O)(=O)c1ccc(-c2ccc(C=NC3CCS(=O)(=O)C3)o2)cc1 (stereo not drawn),-9.5%,10%,1%,7%,-1%,8%,-13%,14%
Cc1cccc(-n2ncc(C(=O)NCc3ccc4c(c3)OCO4)c2C2CCN(C(=O)OC(C)(C)C)CC2)c1,-11%,.,.,-21%,-3%,.,?,.
O=C(Nc1sc2c(c1C(=O)N1CCCCC1)CCCC2)c1ccccc1Cl,-7.0%,.,.,48%[activator],-3%,.,-14%[46.1 µM],1%[46.1 µM]
CC(NC(=O)C(C)N1C(=O)C2C3CC(C(Br)C3Br)C2C1=O)c1ccccc1 (stereo not drawn),-2.6%,0%,3%,4%,6%,-2%,-10%,-17%
CC(C)C[C@@H](CO)N1CCN(Cc2ccc(Br)cc2)CCC1=O,.,-8%,3%,-25%,.,2%,.,.
O=S(=O)(Nc1cccc2ccccc12)c1ccccc1F,.,-12%,-2%,38%[activator],.,-10%,8%[46.1 µM],?
COP(=O)(OC)C(Nc1ccccn1)c1ccccc1 (stereo not drawn),10.0%,122%,-3%,1%,8%,0%,12%,-6%
COc1ccccc1CNC(=O)CCc1c(C)nn(-c2ccc(N3CCCCC3)nn2)c1C,-2.8%,.,.,2%,-18%,.,16%[46.1 µM],.
Cc1ccc2[nH]c3c(=O)n(N)c(C)nc3c2c1,.,-17%,-1%,16%,.,.,0%,-2%[46.1 µM]
CC(Sc1nc2ccccc2o1)C(=O)O (stereo not drawn),0.6%,-10%,9%,62%[activator],7%,-4%,-3%,?
COc1cccc(CNC(=O)C2Cc3cc(S(=O)(=O)N4CCCCCC4)ccc3N2C(C)=O)c1 (stereo not drawn),-0.4%,.,.,-14%,2%,.,13%[46.1 µM],.
CN(c1ccccc1)c1nc(N)c([N+](=O)[O-])c(NC2CCCCC2)n1,.,-22%,1%,-16%,.,3%,.,.
CC(C)c1nnc(NC(=O)CS(=O)(=O)c2ccccc2)s1,.,5%,0%,14%,.,-4%,0%[46.1 µM],?
CC1CCN(C(=O)N2c3ccccc3Sc3ccccc32)CC1,-3.4%,-5%,-28%,?,-11%,-56%,?,?
O=c1[nH]c(SCc2cccc(F)c2)nc2ccccc12,.,-7%,-1%,-1%,.,-4%,.,.
Cc1ccc(NC(=O)CN2C(=O)NC3(CCCCCC3)C2=O)cc1Cl,.,-7%,2%,-17%,.,.,10%,-14%
O=C(NCC(c1ccco1)N1CCN(c2ccc(F)cc2)CC1)C1CCCCC1 (stereo not drawn),.,-5%,4%,-22%,.,.,-23%,-20%
CCOc1cc(C=O)ccc1O,6.3%,-16%,1%,-11%,-5%,.,.,.
NC(=O)c1ccc(NC(=O)C2CCCO2)cc1 (stereo not drawn),4.9%,3%,4%,-3%,8%,4%,-9%,2%[46.1 µM]
CCc1noc(C)c1C(=O)OCC(=O)Nc1c(F)cccc1F,.,-3%,5%,4%,.,.,-15%,0%[46.1 µM]
COC(=O)C1=C(C)Nc2nnnn2C1c1ccco1 (stereo not drawn),4.1%,-1%,4%,-1%,14%,3%,3%,1%
c1coc(-c2nc3ccccn3c2Nc2ccc3c(c2)OCCO3)c1,-9.4%,.,.,8%,-4%,.,0%[46.1 µM],?
COc1cc2nc(-c3ccccc3C)oc(=O)c2cc1OC,.,104%,-4%,-2%,.,0%,30%,.

# (cont.)
mol,Cruzain Triton,RE007 growth inh,SARS PLpro yeast,2A StopGo,Cruzain inh noDet,NS1 function inh,Lassa entry inh,MARV entry inh
COc1ccc(C(=O)NC(=O)CSc2nnc(-c3ccco3)n2-c2ccccc2)cc1,1.9%,31%,-7%,0%,-2%,-8%,?,?
Cc1cccc(NC(=O)CN2CCN(C(=O)c3cnn(Cc4ccccc4)c3)CC2)c1C,.,39%,-17%,0%,.,.,1%,2%
O=C(Cc1ccc(F)cc1)Nc1nc(-c2ccc(F)cc2)cs1,.,-8%,2%,?,.,8%,?,-9%[46.1 µM]
N#CCn1nnc(-c2ccc3c(c2)OCO3)n1,-13%,4%,2%,3%,-23%,-5%,8%,5%
Cc1cccc(NC(=O)[C@H](Cc2ccccc2)NC(=O)[C@@H]2Cc3ccccc3CN2)c1,.,4%,-4%,31%,.,7%,.,.
Clc1cc2c(nn1)Nc1ccccc1S2,.,0%,-1%,22%,.,1%,.,.
CCOCC(=O)Nc1ccccc1C(=O)OCC,3.7%,-12%,0%,0%,6%,4%,5%,18%

# By substructure: the compounds so far with a CF3 group
mol,Cruzain Triton,RE007 growth inh,SARS PLpro yeast,2A StopGo,Cruzain inh noDet,NS1 function inh,Lassa entry inh,MARV entry inh
CC(OC(=O)C1CC1)C(=O)Nc1cc(C(F)(F)F)ccc1Cl (stereo not drawn),.,5%,17%,-3%,.,-2%,16%,-1%[46.1 µM]
CC(C)(C)n1nnnc1C(c1cccc(C(F)(F)F)c1)N1CCC(O)CC1 (stereo not drawn),.,-10%,-1%,-17%,.,-2%,.,.
